RN4220 kill – kills Staphylococcus aureus RN4220; 330,000 tested, 0.33% active; inhibition, % (test concentration not listed); S. aureus RN4220 growth, OD600, 16 h; AID 1259311;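 active = z-score of -3 or lower and OD600 up to 0.18 on both plates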;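 note: plate controls were untreated cells for no effect and reference antibiotic for full effect; stock transfer was 100 nL into about 80 µL; one replicate is shown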
Mtb hypoxia rep – reduces hypoxia-regulated biosensor signal in M. tuberculosis. M. tuberculosis hypoxia-regulated fluorescent reporter, fluorescence. fluorescence inhibition, % (no concentration beside the values). 300,000 tested, 0.1% active;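 active = 35 to 45% if threefold the growth effect, above 45% if 1.5-fold the growth effect; inactive = the rest, general growth blockers included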;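 note: wells of about 50 µL received 100 nL stock; 0% = vehicle wells and 100% = reference inhibitor wells; whole bacteria with a GFP reporter of the hypoxia response; strong numbers were not always called active; many hits fall short of the cut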
BJeLR viability – kills HRASV12-expressing BJeLR cells; BJeLR (HRASV12) viability, CellTiter-Glo ATP luminescence, 48 h; reference of the scale not given here; inhibition, % (test concentration not listed); 300,000 tested, 0.17% active; AID 1554;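 active = replicate mean above 50%; inconclusive = above 50% but judged a plate artefact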;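 note: 50 nL library stock added to about 25 µL; numbers are from one replicate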
Sa ugtP lethal – growth inhibition of S. aureus ugtP deletion strain; growth inhibition, % (concentration not given with the values); 330,000 tested, 0.54% active; S. aureus RN4220 ugtP deletion, OD600 growth, 16 h; some inactives read as strong as hits; AID 1259309;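 active = z-score under -3 and OD600 up to 0.15 on both plates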;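 note: plate controls were untreated wells for no effect and antibiotic for full effect; wells of about 80 µL received 100 nL stock; the first replicate is given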
Autofluor counter – flagged as autofluorescent in microsphere protease counterscreen; 360,000 tested, 3.1% active; AID 624483; compound autofluorescence counterscreen, microsphere flow cytometry; stronger effect = higher value; fluorescence intensity (concentration not given with the values);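 active = at least 3 SD above the mean of all compounds, about 16000 in these data; inconclusive = too few beads counted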;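 note: 100 nL of 1 mM stock went into each well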
PrP 5UTR inh – inhibition of PrP 5' UTR reporter expression. AID 488862. 340,000 tested, 0.35% active. cell-based PrP 5' UTR mRNA reporter, plate reader. inhibition, % (test concentration not listed);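 active = every replicate at 50% or more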;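 note: 0 = median of the neutral control wells; tested in H4 reporter cells; numbers are from one replicate; inactives centre near -14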
Mtb hypoxia rep growth – further read-out of Mtb hypoxia rep, marked with its call; growth inhibition, %; measured here: M. tuberculosis growth (absorbance);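 0% = vehicle and 100% = reference antibiotic; read after six days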
An asterisk follows results filed as active; ? = inconclusive; nt = no result given. Compounds were not picked by outcome, and some 4% of all compounds hit somewhere here.

Screens by letter: A = RN4220 kill; B = Mtb hypoxia rep; C = Mtb hypoxia rep growth; D = BJeLR viability; E = Sa ugtP lethal; F = Autofluor counter; G = PrP 5UTR inh
CCOc1ccc(S(=O)(=O)N2CCC(C(=O)Nc3cc(S(C)(=O)=O)ccc3Cl)CC2)cc1
  A: -0.9	B: 3.3	C: 14.7	D: nt	E: 6.9	F: ?	G: -10.5
CCc1ccc(C(=O)COC(=O)C2=NN(c3ccccc3)C(=O)CC2)cc1
  A: 2.7	B: 0.1	C: 16.0	D: nt	E: -1.4	F: 3969	G: -9.1
Cc1c[n+](CC(=O)c2ccccc2)c(C)cn1
  A: 3.0	B: 11.6	C: 4.5	D: 9.9	E: 4.8	F: 3879	G: -34.4
Cc1ccc2c(C)c(C(=O)N3CCN(c4ccncc4)CC3)oc2c1C
  A: -2.9	B: 22.7	C: 11.7	D: 1.8	E: -8.2	F: 4906	G: -14.1
Cc1onc(-c2ccccc2Cl)c1C(=O)Nc1nnc(Cc2ccc(Cl)cc2)s1
  A: -0.3	B: nt	C: nt	D: 11.1	E: -20.0	F: 2339	G: -22.7
O=C(CCN1C(=O)S/C(=C\c2ccccc2)C1=O)Nc1ccc(O)cc1C(=O)O
  A: 10.3	B: 1.9	C: -7.0	D: 6.2	E: 22.3	F: 5585	G: -24.2
O=C(NCC1OCCCN1S(=O)(=O)c1cc(F)ccc1F)C(=O)NC1CCCCC1 (configuration not stated)
  A: 1.7	B: -0.8	C: 3.9	D: -7.0	E: 10.6	F: 2132	G: -23.8
O=C(NN=Cc1ccc(O)cc1)c1csc2c1CCCC2
  A: 0.4	B: 1.9	C: 17.3	D: nt	E: -0.7	F: nt	G: nt
CSCCC(NC(=O)c1ccccc1)C(=O)NCCc1ccc2c(c1)OCCO2 (configuration not stated)
  A: 1.2	B: 21.3	C: 3.8	D: nt	E: 1.5	F: 2962	G: 15.4
O=C(CSc1nc2ccsc2c(=O)n1NC(=O)c1ccccc1)Nc1nccs1
  A: 6.4	B: -13.0	C: 2.3	D: -2.8	E: -20.2	F: 11040	G: -15.7

In a second layout: entries from further up
structure | RN4220 kill | Mtb hypoxia rep | Mtb hypoxia rep growth | BJeLR viability | Sa ugtP lethal | Autofluor counter | PrP 5UTR inh
CCOc1ccc(S(=O)(=O)N2CCC(C(=O)Nc3cc(S(C)(=O)=O)ccc3Cl)CC2)cc1 | -0.9 | 3.3 | 14.7 | nt | 6.9 | ? | -10.5
CCc1ccc(C(=O)COC(=O)C2=NN(c3ccccc3)C(=O)CC2)cc1 | 2.7 | 0.1 | 16.0 | nt | -1.4 | 3969 | -9.1
Cc1c[n+](CC(=O)c2ccccc2)c(C)cn1 | 3.0 | 11.6 | 4.5 | 9.9 | 4.8 | 3879 | -34.4
Cc1ccc2c(C)c(C(=O)N3CCN(c4ccncc4)CC3)oc2c1C | -2.9 | 22.7 | 11.7 | 1.8 | -8.2 | 4906 | -14.1
Cc1onc(-c2ccccc2Cl)c1C(=O)Nc1nnc(Cc2ccc(Cl)cc2)s1 | -0.3 | nt | nt | 11.1 | -20.0 | 2339 | -22.7
O=C(CCN1C(=O)S/C(=C\c2ccccc2)C1=O)Nc1ccc(O)cc1C(=O)O | 10.3 | 1.9 | -7.0 | 6.2 | 22.3 | 5585 | -24.2
O=C(NCC1OCCCN1S(=O)(=O)c1cc(F)ccc1F)C(=O)NC1CCCCC1 (configuration not stated) | 1.7 | -0.8 | 3.9 | -7.0 | 10.6 | 2132 | -23.8
O=C(NN=Cc1ccc(O)cc1)c1csc2c1CCCC2 | 0.4 | 1.9 | 17.3 | nt | -0.7 | nt | nt
CSCCC(NC(=O)c1ccccc1)C(=O)NCCc1ccc2c(c1)OCCO2 (configuration not stated) | 1.2 | 21.3 | 3.8 | nt | 1.5 | 2962 | 15.4
O=C(CSc1nc2ccsc2c(=O)n1NC(=O)c1ccccc1)Nc1nccs1 | 6.4 | -13.0 | 2.3 | -2.8 | -20.2 | 11040 | -15.7

(next part)
Screens by letter: A = RN4220 kill; B = Mtb hypoxia rep; C = Mtb hypoxia rep growth; D = BJeLR viability; E = Sa ugtP lethal; F = Autofluor counter; G = PrP 5UTR inh
COC(=O)c1ccc(N2NC(=O)/C(=C/c3ccc(-c4ccc(Cl)c(C(=O)O)c4)o3)C2=O)cc1
  A: nt	B: nt	C: nt	D: 9.5	E: nt	F: 4199	G: -13.7
CCCCc1ccc(S(=O)(=O)NN=C(C)c2ccncc2)cc1
  A: 7.0	B: -1.8	C: -0.6	D: nt	E: 7.8	F: nt	G: nt
c1coc(CNC2CCCCC2)c1
  A: 4.5	B: 8.8	C: 1.6	D: -3.7	E: 2.9	F: 3384	G: -23.1
c1ccc(CCNc2nc(-c3cccnc3)cs2)cc1
  A: 5.0	B: -1.5	C: -2.0	D: -4.5	E: 6.6	F: 4209	G: -49.8
Clc1ccc(-c2csc(N3CCCCCC3)n2)cc1
  A: -8.3	B: -5.9	C: 4.0	D: 2.1	E: 36.7	F: 3683	G: -37.7
COc1ccc(N(C)S(=O)(=O)c2ccc(Cl)c(C(=O)NNC(=O)c3ccccc3O)c2)cc1
  A: 12.6	B: -2.4	C: 6.4	D: nt	E: -5.3	F: 6669	G: -21.8
O=C(Nc1nnc(C2CC2)s1)c1cc2ccccc2o1
  A: 6.1	B: 4.8	C: -2.5	D: nt	E: -11.7	F: 6079	G: -81.0
COc1ccc(N2CCN(S(=O)(=O)c3ccc4oc(=O)ccc4c3)CC2)cc1
  A: 1.1	B: 10.9	C: 2.1	D: 3.7	E: 8.1	F: 3635	G: -26.2
O=C(C[n+]1ccc(C(=O)N/N=C/c2ccc(O)cc2)cc1)c1ccccc1
  A: nt	B: nt	C: nt	D: -15.3	E: nt	F: 3285	G: -13.1
Cc1cc(=O)oc(C)c1C(=O)N1CCN(C)CC1
  A: 3.4	B: 13.3	C: 5.2	D: 0.7	E: 11.5	F: 3664	G: -21.7
CCN(CC)CCOC(=O)c1ccc(NC(=O)CNC(=O)c2ccccc2)cc1
  A: 3.2	B: 14.1	C: 10.7	D: -2.0	E: 5.9	F: 4642	G: -4.6
COc1ccccc1C1C(C(N)=O)=C(C)Nc2nc(-c3ccccc3Cl)nn21 (configuration not stated)
  A: 3.5	B: nt	C: nt	D: -1.7	E: 5.8	F: 5732	G: -16.9
CC(=O)c1cc2c(cc1NS(=O)(=O)c1ccc(C)cc1)OCCO2
  A: -0.3	B: nt	C: nt	D: 4.0	E: -3.3	F: 2557	G: -24.2
COc1ccc(CCNC(=O)CCCCn2c(=O)[nH]c3ccccc3c2=O)cc1OC
  A: -3.8	B: -2.9	C: 1.9	D: 0.2	E: -4.1	F: 4461	G: -5.3
COc1ccc(NC(=O)C2CCC(CNc3c(N4CCCCC4)c(=O)c3=O)CC2)c(OC)c1 (configuration not stated)
  A: 2.2	B: 11.0	C: 8.3	D: 7.0	E: 2.6	F: 3556	G: -14.1
Nc1c2c(nc3ccccc13)CCCC2=O
  A: 5.4	B: 15.1	C: 9.5	D: 1.3	E: 6.6	F: 3969	G: -15.3
COc1ccc(CN(C)C(=O)COC(=O)c2cnc(Cl)c(Cl)c2)cc1
  A: 1.3	B: 7.4	C: -7.9	D: nt	E: 6.4	F: nt	G: nt
CCCN1CCN(CC(=O)Nc2cc(OCC)ccc2OCC)CC1
  A: 2.7	B: 9.3	C: 6.1	D: -0.5	E: 5.4	F: 3756	G: -22.5
Cn1c(Cl)c(/C=N/OC(=O)C2CC2)c2ccccc21
  A: nt	B: nt	C: nt	D: -1.1	E: nt	F: 4084	G: -15.1
COc1cc(C2Nc3ccc4ccccc4c3C3=C2C(=O)CC(C)(C)C3)ccc1OCC(=O)O (configuration not stated)
  A: 1.9	B: -2.3	C: -2.0	D: -11.1	E: 0.1	F: 3383	G: -11.5
CCOc1ccc(NC(=O)c2ccc(NCC(=O)N3CCCCCC3)cc2)cc1
  A: 6.5	B: 9.6	C: 5.0	D: 9.6	E: 1.4	F: 4114	G: -25.3
COCCCN(CCC#N)C(=O)c1c(-c2c(Cl)cccc2Cl)noc1C
  A: 5.4	B: 18.2	C: 9.5	D: 0.5	E: 5.3	F: 3620	G: -20.7
CC(=O)N(CCc1ccccc1C)Cc1cc2cc(C)ccc2[nH]c1=O
  A: 2.1	B: -0.6	C: -6.0	D: -4.2	E: 3.9	F: 3310	G: -6.6
O=C(Nc1nc2ccccc2s1)c1ccccc1[N+](=O)[O-]
  A: 5.6	B: 12.1	C: 2.7	D: 2.6	E: 0.6	F: 3974	G: -27.9
CCC(C)C(=O)Nc1nc(C)c(-c2csc(Nc3ccccc3OC)n2)s1 (configuration not stated)
  A: 2.7	B: 8.3	C: 10.9	D: 6.5	E: 2.4	F: 3389	G: -10.6
CC(=O)c1ccc(N2CCN(c3ccnc4cc(Cl)ccc34)CC2)cc1
  A: 0.7	B: 5.3	C: 20.1	D: -2.6	E: -0.5	F: 5499	G: 9.6
CCn1c(-c2ccccc2SC)n[nH]c1=S
  A: 4.3	B: 12.5	C: -1.5	D: -6.2	E: 11.1	F: 4459	G: -11.6
